AmpC no deterg – blocks E. coli AmpC beta-lactamase in detergent-free assay; AmpC nitrocefin hydrolysis, absorbance 480 nm, 0.0001% Triton; P00811; AID 485341; Potency, µM (titrated, usually from 57.1 µM), without a hit: at the highest dose activity change, negative = inhibition, usual class: inhibitors; hit rate 0.52% among 330,000;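 also: plate controls were no compound for no effect and no enzyme for full effect; nearly all actives have a fitted effect of over 20% in size; some results filed as inactive show a strong effect at the top dose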
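20 mM phosphate pH 7.0 + 0.01% (detergent screen) or 0.0001% Triton X-100; 5.3 nM AmpC reagent; cpd preinc 15 min RT; nitrocefin (800 uM stock) to start; A480 q20 s × 4 min; Activity was normalised to no-enzyme and no-compound control wells.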
FBPA Giardia inh – Giardia lamblia aldolase inhibition. hit rate 0.71% among 290,000. Potency, µM (highest dose often 59.6 µM), without a hit: top-dose activity, negative = inhibition, usual class: inhibitors. AID 2451. purified Giardia FBPA; also: nearly all actives have a fitted effect of over 55% in size
Target sequence (A8B2U2 whole entry, looked up): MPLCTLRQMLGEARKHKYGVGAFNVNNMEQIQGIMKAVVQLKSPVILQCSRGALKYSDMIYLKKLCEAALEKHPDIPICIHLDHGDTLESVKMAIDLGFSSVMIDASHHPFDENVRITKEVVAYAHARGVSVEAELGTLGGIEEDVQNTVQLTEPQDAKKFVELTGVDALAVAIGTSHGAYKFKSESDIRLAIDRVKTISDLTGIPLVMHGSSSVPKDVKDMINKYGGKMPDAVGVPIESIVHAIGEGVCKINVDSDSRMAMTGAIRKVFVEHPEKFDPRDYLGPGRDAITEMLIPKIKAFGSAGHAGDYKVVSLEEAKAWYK
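Giardia FBPA (40 nM reagent) was preincubated 10 min at RT with compound (up to 57.5 uM final), then substrate plus GAPDH/TPI/NAD/arsenate coupling system with diaphorase/resazurin was added; resorufin fluorescence (525/598 nm) was read after 20 min.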
AMA1 RON2 block – disrupts binding of P. falciparum AMA1 to RON2 | AlphaScreen AMA1-biotinylated RON2 peptide binding | hit rate 0.2% among 360,000 | AID 720542 | Potency, µM (titrated, usually from 58.2 µM), without a hit: at the top dose activity change, negative = inhibition, hits mostly inhibitors;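 also: 0% = vehicle wells and -100% = peptide control; nearly all actives have a fitted effect of over 45% in size; some results filed as inactive show a strong effect at the top dose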
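AMA1 (3D7) with his tag at 25 nM final met compounds first, then biotinylated RON2 peptide at 25 nM; detection used donor plus acceptor beads, 10 µg/mL apiece, read by AlphaScreen after 30 min at room temperature.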
AmpC inh detg – AmpC beta-lactamase inhibition with detergent present; AmpC hydrolysis of nitrocefin, absorbance 480 nm, 0.01% Triton; P00811; hit rate 0.041% among 370,000; Potency, µM (doses to about 114 µM), without a hit: at the top dose activity change, negative = inhibition, hits mostly inhibitors;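 also: 0% = no-compound wells and -100% = no-enzyme wells; nearly all actives have a fitted effect of over 25% in size; some results filed as inactive show a strong effect at the top dose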
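20 mM phosphate pH 7.0 + 0.01% (detergent screen) or 0.0001% Triton X-100; 5.3 nM AmpC reagent; cpd preinc 15 min RT; nitrocefin (800 uM stock) to start; A480 q20 s × 4 min; Activity was normalised to no-enzyme and no-compound control wells.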
Active calls of the source: *; u = inconclusive; x = no result given; & = joins results of further samples; [ ] = remark or other dose. Calls follow the shape of the dose curve; as a rule, active = well fitted curve in the direction sought with a large enough effect; inconclusive = small, poorly fitted or top-dose-only effect, or another doubt; inactive = no such curve, though single readings can be large; an effect the other way counts as inactive or inconclusive. Unless noted, % is scaled to controls: 0 for no effect and ±100 for the full control effect; potency is read from the fitted curve at half-maximal effect.

entry	smiles	AmpC no deterg	FBPA Giardia inh	AMA1 RON2 block	AmpC inh detg
1	CCCCC(=O)N(Cc1ccc(-c2ccccc2-c2nn[nH]n2)cc1)[C@H](C(=O)O)C(C)C	-10%	-30%	x	-14%
2	CC(=O)OCC(=O)[C@@]12OC(C)(C)O[C@@H]1C[C@H]1[C@H]3C[C@H](F)C4=CC(=O)C=C[C@@]4(C)[C@]3(F)[C@H](O)C[C@@]12C	x	1%[21.7 µM]	x	x
3	Cc1ccc(O)c(C(CCN(C(C)C)C(C)C)c2ccccc2)c1 (stereo not drawn)	x	1%	x	x
4	C#CCN(C)CCCOc1ccc(Cl)cc1Cl	14%	-9%	-14%	u
5	O=C(Oc1ccc2c(c1)OCC2=O)c1ccccc1	-31%	0%	3%	3%
6	O=C(O)CN(CCN(CC(=O)O)CC(=O)O)CC(=O)O	x	3%&-19%	x	x
7	Cc1nnc(SCC(=O)N2CCc3ccccc32)s1	u	-9%	8%	2%
8	CNCCC(Oc1ccc(C(F)(F)F)cc1)c1ccccc1 (stereo not drawn)	20%	-4%&3%&2%&6%	-3%	-2%
9	CNCC[C@@H](Oc1ccc(C(F)(F)F)cc1)c1ccccc1	20%	2%	6%	u
10	Nc1nc2c(ncn2COC(CO)CO)c(=O)[nH]1	-11%	2%	7%	-10%
11	Cc1cn([C@H]2C=C[C@@H](CO)O2)c(=O)[nH]c1=O	-9%&-9%&-19%	6%&0%&2%&9%	8%&2%	-1%&3%&1%
12	C#C[C@]1(O)CC[C@H]2[C@@H]3CCC4=C(CCC(=O)C4)[C@H]3CC[C@@]21C	-23%	7%	8%	-10%
13	CCn1cc(C(=O)Nc2ccc(C)c([N+](=O)[O-])c2)cn1	-18%	-6%	-4%	0%
14	CCN(CC)c1ccc(C(=O)c2ccccc2C(=O)O)c(O)c1	-6%	15%	13%	u
15	CN(c1ccccc1)c1ccc(/C=C/[N+](=O)[O-])cc1	-6%	-8%	-4%	-11%
16	c1ccc2c(c1)nc(N1CCOCC1)c1nnnn12	3%	1%	12%	-12%
17	Nc1[nH]c(=O)ncc1F	-35%&-12%	1%	1%	-2%&-8%
18	c1ccc2sc(SNC3CCCCC3)nc2c1	x	-11%	x	x
19	Cc1ccoc1C(=O)Nc1cccc(Oc2ccccc2)c1	-30%	-6%	14%	-3%
20	Cc1cccc(NC(=O)COc2ccc(Br)cc2C)n1	-15%	-4%	-2%	-2%
21	O=C1c2ccccc2C(=O)C1c1ccccc1	-1%	0%	5%	9%
22	Nc1c(Br)cc(Br)cc1CNC1CCC(O)CC1 (stereo not drawn)	-30%&-1%	-26%	-8%&0%	u
23	[Cl][Pt+2][Cl].[NH-]C1CCCCC1[NH-] (stereo not drawn)	-9%	x	-5%	u
24	N#Cc1ccccc1NC(=O)c1cccc(COc2ccc(Cl)cc2Cl)c1	-13%	-5%	12%[11.6 µM]	2%
25	O=c1[nH]cnc2ccccc12	1%	1%&0%&-2%	11%	-8%

17 of the compounds above, with values under each structure.
Values run as follows: AmpC no deterg, FBPA Giardia inh, AMA1 RON2 block, AmpC inh detg
1: CCCCC(=O)N(Cc1ccc(-c2ccccc2-c2nn[nH]n2)cc1)[C@H](C(=O)O)C(C)C
→ -10%, -30%, x, -14%
2: CC(=O)OCC(=O)[C@@]12OC(C)(C)O[C@@H]1C[C@H]1[C@H]3C[C@H](F)C4=CC(=O)C=C[C@@]4(C)[C@]3(F)[C@H](O)C[C@@]12C
→ x, 1%[21.7 µM], x, x
3: Cc1ccc(O)c(C(CCN(C(C)C)C(C)C)c2ccccc2)c1 (stereo not drawn)
→ x, 1%, x, x
4: C#CCN(C)CCCOc1ccc(Cl)cc1Cl
→ 14%, -9%, -14%, u
5: O=C(Oc1ccc2c(c1)OCC2=O)c1ccccc1
→ -31%, 0%, 3%, 3%
6: O=C(O)CN(CCN(CC(=O)O)CC(=O)O)CC(=O)O
→ x, 3%&-19%, x, x
7: Cc1nnc(SCC(=O)N2CCc3ccccc32)s1
→ u, -9%, 8%, 2%
8: CNCCC(Oc1ccc(C(F)(F)F)cc1)c1ccccc1 (stereo not drawn)
→ 20%, -4%&3%&2%&6%, -3%, -2%
9: CNCC[C@@H](Oc1ccc(C(F)(F)F)cc1)c1ccccc1
→ 20%, 2%, 6%, u
10: Nc1nc2c(ncn2COC(CO)CO)c(=O)[nH]1
→ -11%, 2%, 7%, -10%
11: Cc1cn([C@H]2C=C[C@@H](CO)O2)c(=O)[nH]c1=O
→ -9%&-9%&-19%, 6%&0%&2%&9%, 8%&2%, -1%&3%&1%
12: C#C[C@]1(O)CC[C@H]2[C@@H]3CCC4=C(CCC(=O)C4)[C@H]3CC[C@@]21C
→ -23%, 7%, 8%, -10%
13: CCn1cc(C(=O)Nc2ccc(C)c([N+](=O)[O-])c2)cn1
→ -18%, -6%, -4%, 0%
14: CCN(CC)c1ccc(C(=O)c2ccccc2C(=O)O)c(O)c1
→ -6%, 15%, 13%, u
15: CN(c1ccccc1)c1ccc(/C=C/[N+](=O)[O-])cc1
→ -6%, -8%, -4%, -11%
16: c1ccc2c(c1)nc(N1CCOCC1)c1nnnn12
→ 3%, 1%, 12%, -12%
17: Nc1[nH]c(=O)ncc1F
→ -35%&-12%, 1%, 1%, -2%&-8%

Additional entries follow:
entry	smiles	AmpC no deterg	FBPA Giardia inh	AMA1 RON2 block	AmpC inh detg
26	CC(=O)OCC(=O)[C@@]1(O)CC[C@H]2[C@@H]3CCC4=CC(=O)C=C[C@]4(C)[C@H]3[C@@H](O)C[C@@]21C	-7%	3%	-10%	4%
27	CCCSc1ccc2nc(NC(=O)OC)[nH]c2c1	1%	-8%	9%	u
28	CCC1(c2ccccc2)C(=O)NCNC1=O	-10%	4%	7%	-11%
29	C#C[C@]1(O)CCC2C3CCC4=CC(=O)CC[C@@H]4C3CC[C@@]21C (stereo partly drawn)	-10%	14%	-11%	-7%

Source: PubChem BioAssay (National Center for Advancing Translational Sciences (NCATS))

These rows are one share of the data; rates above refer to the full screens.
